Screens from PubChem BioAssay.
TAR Tat displ – TAR RNA-Tat peptide displacers, HIV-1, primary screen, biochemical, FRET, FAM/TAMRA-labeled Tat | z-score (no concentration beside the values) | AID 1259389, 2018 | HIV-1 TAR RNA, Tat peptide displacement FRET; active compounds read high | 0.6% of 100,000 active;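 further: score is relative to mean and SD of negative controls; some compounds called inactive have numbers as strong as hits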
CDC25B-CDK2 inh – primary biochemical HTRF screen for blockers of M-phase inducer phosphatase 2 binding to CDK2/cyclin A | HTRF CDC25B-CDK2/CyclinA binding, anti-His/anti-Flag; active compounds read high | z-score (concentration not given with the values) | P30305+P24941 | 0.72% of 94,000 active;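 further: score is relative to mean and SD of negative controls; strong numbers were not always called active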
* marks the source's active call; other numbers are inactive results; . = not tested or not shown.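 How the source made its calls: active means z-score from 3 up in half or more of its runs; inactive means the rest.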

SMILES,TAR Tat displ,CDC25B-CDK2 inh
CC(C)(C)c1ccc(OCc2ccc(C(=O)O)cc2)cc1,-1.37,-1.14
O=C(c1cn(CC(=O)N2CCc3ccccc3C2)c2ccccc12)C1CCCCC1,-1.03,-1.32
NNS(=O)(=O)c1ccc(Cl)cc1,.,0.12
Cc1csc(C(=O)O/N=C/c2ccc(C#N)cc2)c1,.,-0.99
CC1=C(C(=O)OC2CCCCCCC2)C(c2ccccc2)NC(=O)N1 (centres undefined),.,0.02
CC(=O)NC1=NN(C(C)=O)C2(CCCCC2)S1,.,-0.24
O=C(NCc1ccc2c(c1)OCO2)c1cnc2sc(N3CCCCC3)nn2c1=O,-0.92,.
COc1ccc(OC)c(CNCc2ccc3c(c2)OCO3)c1,1.36,-1.72
Cc1ccc(OCc2cc(=O)n3cc(C)sc3n2)cc1,0.64,-1.38
Cc1ccc(S(=O)(=O)C/N=C(/NC(=S)Nn2cnnc2)c2ccccc2)cc1,.,-3.15
CC1CCN(CCCCOc2ccc(F)cc2)CC1,1.04,0.4
CCN1CCc2nc(NC(=O)C3COc4ccccc4O3)sc2C1 (centres undefined),0.84,.
CCOC(=O)N/N=C(\C)c1cccc(NC(C)=O)c1,.,-1.24
O=C(CCSCc1cnn(-c2ccccc2)c1-n1cccc1)NCc1cccs1,-4.42,0.1
CCCCCOc1ccc(OC(=O)c2sc3ncn(CC)c(=O)c3c2C)cc1,0.57,-2.41
CCCCC1CCC(C(=O)N(Cc2ccco2)S(=O)(=O)c2ccc3c(c2)oc(=O)n3C)CC1 (centres undefined),1.31,-1.04
Cc1cc(C)c(S(=O)(=O)N2CCCC2c2ccco2)c(C)c1 (centres undefined),0.23,-0.51
CCSCCOC(=O)C1=C(C)NC2=C(C(=O)CCC2)C1c1cc(OC)ccc1OC (centres undefined),.,-0.39
O=S(=O)(c1cccc2nsnc12)N1CCn2c(nc3ccccc32)C1,0.79,-0.8
COCCOC(=O)c1c(C)oc2ccc(OC(=O)c3ccc(Cl)cc3)cc12,1.84,-1.18
COC(=O)C1=C(OC(=O)c2ccc(Br)cc2)c2ccccc2S(=O)(=O)N1C,0.91,1.06
C=CCOC(=O)C1=C(C)NC(C)=C(C(=O)OCC=C)C1c1ccc(C(C)C)cc1,.,-2.59
O=C(Nc1cc(-c2cccc(Cl)c2)no1)c1cc2ccc3cccnc3c2[nH]1,0.28,.
CCOc1ccc(-n2ccc(=O)c(C(=O)Nc3nnc(C(C)C)s3)n2)cc1,-0.04,0.16
C=CCN(CC=C)S(=O)(=O)c1ccc(C(=O)Nc2nc3c(s2)CCC3)cc1,0.23,0.32
N#Cc1ncn(-c2ccccc2)c1N,1.19,3.19
O=[N+]([O-])c1ccc(-c2ncn[nH]2)cc1,.,-1.78
C=CCN1C(=O)/C(=C\c2ccc(OCc3cccc(C)c3)c(OCC)c2)SC1=S,.,-1.54
Cc1ccc(S(=O)(=O)NCC(c2ccc(N(C)C)cc2)N(C)C)cc1 (centres undefined),0.31,.
O=C(O)CN1C(=O)CCS(=O)c2ccccc21 (centres undefined),.,-0.95
CN(CCc1ccccn1)c1ncnc2[nH]ncc12,0.25,.
O=C(CCC(=O)N1CCN(c2nc3cccnc3s2)CC1)NCCN1CCCC1,-1.63,.
CC(C)CCn1c(NCc2ccco2)nc2c1c(=O)[nH]c(=O)n2C,1.38,-1.53
O=C(NC1CCCCC1)N1CCN(c2ncnc3c(-c4ccc(F)cc4)nsc23)CC1,0.88,-2.14
CSC1=NS(=O)(=O)c2ccccc2N1,2.06,.
Fc1ccc(C2CC(c3ccccc3)Nc3nnnn32)cc1 (centres undefined),0.8,.
CCOc1ccc(CN=C2NS(=O)(=O)C(c3ccc(Cl)cc3)=C2C)cc1,-0.06,-6.46
COc1ccc(CN2C(=O)N(CC(=O)c3ccccc3)c3ccccc3S2(=O)=O)cc1,1.82,.
CCCn1c(NCc2ccccc2C)nc2ccccc21,1.75,-1.87
Cn1nccc1-c1nc(-c2ccc3c(c2)nnn3C2CCCC2)no1,0.46,.
O=C(CCSCCc1ccccn1)Nc1cccnc1,0.17,.
O=c1c(N2CCN(C/C=C/c3ccccc3)CC2)csc2ccccc12,-1.97,.
CSc1ccc(C2C3=C(CCCC3=O)Nc3ccccc3N2C(=O)c2ccccc2)cc1 (centres undefined),0.55,-1.79
COC(=O)c1sccc1NC(=O)C1=Cc2sc3c(c2CS1)CCCC3,-1.75,.
O=C(CSC1CC(=O)N(c2cccc(Cl)c2)C1=O)Nc1ccc(Br)cc1 (centres undefined),0.1,-0.91
COc1cccc(NC(=O)CSCc2cc(=O)n3nc(C4CC4)sc3n2)c1,-1.23,.
Cc1nn(C(=O)c2ccc(Cl)cc2)c(C)c1Sc1ncccn1,.,-1.86
COc1ccccc1Nc1nc(N)nc(CN2CCN(C)CC2)n1,-1.24,2.73
CCCc1cc(NCCOCCO)n2c(nc3ccccc32)c1C#N,-3.14,-1.13
COc1cc(NC(=O)C2=CSCCO2)c(Cl)cc1C(=O)N1CCC(C(N)=O)CC1,1.31,.
CC1CCCC(NC(=O)CN(C)S(=O)(=O)c2ccc3c(c2)CCC(=O)N3)C1C (centres undefined),.,-1.24
CNc1nc(Nc2ccc(OC)c(Cl)c2)c2cnn(C)c2n1,0.52,.
c1cc2c(cc1CN1CCC(N3CCCCCC3)CC1)OCO2,.,0.03
O=C(c1ccccc1)n1c(=O)oc2ccccc21,0.96,.
COCCN1CSC(=S)N(Cc2ccc(OC)cc2)C1,.,-1.5
CCn1ncc(C2=NOC(C(=O)Nc3ccc4c(c3)OCO4)C2)c1C (centres undefined),0.29,-2.04
CC(C)n1cnc(S(=O)(=O)N2CCCC(C(=O)N3CCC(N4CCCCC4)CC3)C2)c1 (centres undefined),1.52,.
CCOC(=O)CSc1ccc2nnc(-c3ccc(OC)c(OC)c3)n2n1,.,0.86
Cc1oc2ccc(O)c(CN3CCCC3)c2c1C(=O)NC1CCCC1,2.74,-1.95
CCc1nn(CC(=O)NCCCN(CC)CC)c(=O)c2cc3sccc3n12,-0.19,0.02

Full records as entered above. Values in the order: TAR Tat displ	CDC25B-CDK2 inh
Record of `COc1ccc(CN2C(=O)N(CC(=O)c3ccccc3)c3ccccc3S2(=O)=O)cc1` : 1.82	.
Record of `COc1cccc(NC(=O)CSCc2cc(=O)n3nc(C4CC4)sc3n2)c1` : -1.23	.
Record of `CSc1ccc(C2C3=C(CCCC3=O)Nc3ccccc3N2C(=O)c2ccccc2)cc1` (centres undefined) : 0.55	-1.79

Other compounds follow.
SMILES,TAR Tat displ,CDC25B-CDK2 inh
CCOC(=O)c1c(S(=O)(=O)N2CCCC(C(=O)N3CCCCC3)C2)c(C)n(CC)c1C (centres undefined),2.69,.
Cc1nc2c(c(C)c1CCC(=O)N1CCC(N3CCCCC3)CC1)c(=O)n(C)c(=O)n2C,0.25,-1.09
O=C(O)c1c2c(nc3ccc(F)cc13)CCCCC2,.,-1.13
CCOC(=O)c1ccc(NC(=S)NC(NC(=O)c2ccccc2Br)C(Cl)(Cl)Cl)cc1 (centres undefined),.,1.84
C[C@]12CCC3c4ccc(OC(=O)CCC(=O)O)cc4CCC3C1CCC2=O (some centres undefined),1.1,.
CCOC(=O)c1[nH]c(C)c(S(=O)(=O)N2CCC(N3CCCCC3)CC2)c1C,0.33,.
Cc1nc2cc(S(=O)(=O)C(F)(F)F)ccc2s1,.,-0.1
COc1ccc(N2CCN(C(=O)c3noc4c3CCc3sccc3-4)CC2)cc1,0.82,.
CCC(=O)Nc1c(C(=O)N2CCOCC2)oc2ccccc12,0.82,.
Cc1occc1-c1nnc(SCC(=O)NCc2ccco2)o1,2.31,0.14
CC1CCCC(C)N1CCNc1nc2ccccc2c2nc(-c3cccnc3)nn12 (centres undefined),1.04,-1.29
O=C1c2oc3ccccc3c(=O)c2C(c2ccc(F)cc2)N1CCCN1CCOCC1 (centres undefined),0.16,0.17
CC(=O)N1CCC2(CC1)OC(=O)C(C)=C2C(=O)NCCN(C)C1CCCCC1,1.29,.
COc1cc(C2C(C#N)=C(N)OC3=C2C(=O)CC(c2ccccc2)C3)ccc1OCc1ccccc1 (centres undefined),.,-2.11
Fc1ccc2[nH]c3c(c2c1)CN(Cc1ccccc1)CC3,.,-0.7
CCCSCCCNC(=O)Cn1nc(CC)n2c(cc3sccc32)c1=O,-0.13,-0.56
CCOC(=O)c1c(NC(=O)c2nn(-c3ccc(OCC)cc3)ccc2=O)sc2c1CCCC2,0.46,-0.18
Cc1csc(NC(=O)c2cc(=O)n(C)c3c2c(=O)n(C)c(=O)n3C)n1,0.23,.
Nc1ncc(S(=O)(=O)O)s1,.,-0.5
Cc1ccc(NC(=S)NCCCNC(=O)c2cccs2)c(C)c1,.,-0.82
Cc1ncc(CO)c2c1Oc1nc(-c3ccc(C(=O)O)cc3)[nH]c(=O)c1C2,2.36,-1.11
COc1ccc2c(c1)OCC(Cc1ccc(OC)c(O)c1)C2=O (centres undefined),0.94,.
CC(c1ccccc1)N1CSC2=C(C#N)C(c3ccc(Cl)cc3)CC(=O)N2C1 (centres undefined),1.58,1.37
O=C1c2cccnc2C(=O)N1Cc1ccc(S(=O)(=O)NC2CCCC2)s1,0.95,.
CCN(CC)CCNc1ncnc2c1cnn2C,1.64,.
Cc1cc(C)nc(NC(=O)COc2ccc(C(C)C)cc2)n1,.,-0.43
CC(=O)c1cccc(NS(=O)(=O)c2cc(Cl)c(Cl)cc2Cl)c1,.,-0.57
CCN1C(=O)C(Cc2nc3ccccc3c(=O)n2CC)c2ccccc21 (centres undefined),1.43,0.63
CCCN1C(=O)c2[nH]nc(-c3cc(C)ccc3O)c2C1c1ccc(C)cc1 (centres undefined),-1.17,-0.11
CCOc1ccc(NC(=O)Nc2c[nH]c(=O)[nH]c2=O)cc1,-0.51,-1.06
Cc1oc(C(=O)NC(=O)Nc2cccc(C(F)(F)F)c2)nc1-c1ccccc1,.,-2.34
CCCNC(=S)NNC(=O)Cc1ccc(Cl)c(Cl)c1,.,-1.49
CCc1nc2n(n1)C1(CCCCC1)[C@@H]1CCCC[C@@H]1N2C(=O)c1cccs1,2.19,0.23
CCC1CN(C(=O)N2CCC(C(=O)O)CC2)c2ccccc2O1 (centres undefined),-0.12,0.77
CN(CC(=O)N1CCN(Cc2ccccc2)CC1)S(=O)(=O)c1ccc2c(c1)CCC(=O)N2,.,-0.67
CCN(CC)C(=O)Cn1cc(C(=O)C(=O)N2CCc3ccccc3C2)c2ccccc21,-0.43,.
O=C(Cc1cccs1)Nc1ccc(OC(F)(F)F)cc1,.,-1.95
Cc1nn(C)cc1CNC(=O)c1cc2n(n1)C(C(F)(F)F)CC(c1cccs1)N2 (centres undefined),0.75,-1.46
Cc1cccc(-c2nnc(SCC(=O)O)o2)c1,1.34,-1.04
CCCc1nc(C)sc1-c1nnc(NC(=O)Nc2ccccc2)o1,1.3,.
COc1ccc2c(c1)c(CCN1C(=O)c3ccccc3C1=O)cn2C(=O)c1ccco1,.,-3.87
CCC1(CC)Cc2ccccc2-c2nc3n(c(=O)c21)CCS3,.,-1.58
Cn1c(=O)n(CC(N)=O)c(=O)c2c1nc1n2CCN1c1ccccc1,2.33,.
O=[N+]([O-])c1ccc2c(c1)OCCOCCOCCOCCO2,.,0.18
O=S(=O)(c1ccc2ccccc2c1)N1CCCN(Cc2c(F)cccc2Cl)CC1,.,-1.47
CC(C)NC(=O)CCCc1nc(-c2cccs2)no1,1.81,-1.14
O=C(NNc1cc(Cl)cc(Cl)c1)c1cccs1,.,-1.97
O=S(=O)(NC1CCCCC1N1CCOCC1)c1ccc(Cl)cc1 (centres undefined),0.98,-1.56
Cc1ccc(-c2c(N3CCCC(C)C3)c(=O)c2=O)cc1C (centres undefined),0.43,.
Cc1cc2n(n1)CCCN2C(=O)CCC(=O)NCc1ccc(C)o1,0.58,.
CCCCCCC1COC(c2ccc(O)cc2)OC1 (centres undefined),.,-1.47
O=C(NCCN1CCN(c2ccccc2F)CC1)NC1COc2ccccc2C1 (centres undefined),0.1,.
O=C(NC1CCSC1=O)c1ccc(C(=O)NC2CCSC2=O)cc1 (centres undefined),2.05,-2.43
Cc1c(-c2nc(-c3ccccc3)no2)nnn1-c1ccc(F)cc1,1.19,.
CC(C)NC(=O)c1cnc2sc(N3CCCCC3)nn2c1=O,0.51,.
O=C(O)Cn1nc(-c2ccccc2)c2ccccc2c1=O,.,-0.44
Cn1c2ccccc2n2cc(-c3ccc4c(c3)OCO4)nc12,2.2,0.02
O=C(Nc1nnc(SCc2cc(=O)c3cccc(Cl)c3[nH]2)s1)c1cccs1,1.95,.

5 of the compounds above, with values under each structure:
Below each SMILES – TAR Tat displ, CDC25B-CDK2 inh
CCN1CCc2nc(NC(=O)C3COc4ccccc4O3)sc2C1 (centres undefined)
 : 0.84, .
COc1ccc(N2CCN(C(=O)c3noc4c3CCc3sccc3-4)CC2)cc1
 : 0.82, .
C=CCOC(=O)C1=C(C)NC(C)=C(C(=O)OCC=C)C1c1ccc(C(C)C)cc1
 : ., -2.59
CC(C)CCn1c(NCc2ccco2)nc2c1c(=O)[nH]c(=O)n2C
 : 1.38, -1.53
CCCCC1CCC(C(=O)N(Cc2ccco2)S(=O)(=O)c2ccc3c(c2)oc(=O)n3C)CC1 (centres undefined)
 : 1.31, -1.04
